# Rango-impB inh: prevents formation of the Rango-importin beta complex; Rango CFP/YFP FRET sensor + importin beta, 45 min; Q14974; AID 540263; actives 0.031% (n = 340,000); Potency, µM (top dose mostly 92.2 µM), without a hit: top-dose inhibition of complex formation; active = rising FRET ratio curve, often small or poorly fitted; inconclusive = mostly compound fluorescence or quenching in the first reads; inactive = flat curves in all reads;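 note: potency is the fitted concentration of half-maximal effect; 0% = DMSO wells and 100% = buffer wells lacking importin beta; nearly all actives have a fitted effect of over 15% in size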
#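 FRET biosensor (snurportin 1 IBB flanked by EYFP and cerulean), 50 nM, with compound 5 min, then 0.125 microM importin beta in PBS, 1 mM DTT, 0.02% Tween-20, 0.1% BSA. CFP/YFP ratio read after 45 min at room temperature; pre-read flags interference.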
# miR-21 reporter: raises the signal of a miR-21 reporter; HeLa miR-21 FLuc reporter, luciferase, 48 h; Potency, µM (titrated, usually from 38.3 µM), inactives show top-dose reporter change, positive = more light; 340,000 tested, under 10 active; AID 2288; active = well fitted rising curve with a large enough effect; inconclusive = small, poorly fitted or top-dose-only effect; inactive = no such curve, though single readings can be large or run the other way;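 note: % of control where 0% means no effect; miR-21 action dims this reporter so a rising signal means less miR-21 action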
#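 Luminescence from a firefly luciferase reporter carrying a miR-21 binding site downstream, stably expressed under a CMV promoter in HeLa cells that make miR-21 endogenously, reports miRNA modulation after 48 h compound exposure up to approximately 40uM final.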
# Rango dissoc inh: prevents RanGTP from dissociating the Rango-importin beta complex; O95149+P62826; Biochemical FRET Rango-importin beta, RanGTP-induced dissociation; Potency, µM (titrated, usually from 46.1 µM), for inactives: top-dose activity change, negative = inhibition; actives 0.071% (n = 340,000); AID 540253; active means falling FRET ratio curve, often poorly fitted, with flat reads before Ran was added; inconclusive means other falling curves, or compound fluorescence or quenching; inactive means flat or rising ratio curve;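 note: potency is the fitted concentration of half-maximal effect; % of control where 0% means no effect; nearly all actives have a fitted effect of over 45% in size; -100% = wells without RanGTP and RCC1; the record marks most hits as doubtful in a second field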
#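 Quantitative HTS using a FRET biosensor: 0.1 uM Rango, 0.25 uM importin beta, 0.6 uM Ran, 2 mM GTP, 0.2 uM RCC1 final, PBS with DTT, Tween-20 and BSA. Post-read taken 45 min after Ran addition.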
# GLA inh pH 4.5: blocks human alpha-galactosidase A at pH 4.5. 230,000 tested, under 10 active. activity change, negative = inhibition, % at 105 µM. purified enzyme, 4-MU-alpha-Gal fluorescence, pH 4.5. P06280; inconclusive = small, poorly fitted or top-dose-only inhibition, or a rising curve; inactive = flat fitted curve, though single readings scatter; no compound was filed as active;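 note: 0% = full activity with enzyme and -100% = basal without enzyme; dose as in the result columns while the protocol names 77 µM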
# Target sequence (P06280 whole entry, looked up): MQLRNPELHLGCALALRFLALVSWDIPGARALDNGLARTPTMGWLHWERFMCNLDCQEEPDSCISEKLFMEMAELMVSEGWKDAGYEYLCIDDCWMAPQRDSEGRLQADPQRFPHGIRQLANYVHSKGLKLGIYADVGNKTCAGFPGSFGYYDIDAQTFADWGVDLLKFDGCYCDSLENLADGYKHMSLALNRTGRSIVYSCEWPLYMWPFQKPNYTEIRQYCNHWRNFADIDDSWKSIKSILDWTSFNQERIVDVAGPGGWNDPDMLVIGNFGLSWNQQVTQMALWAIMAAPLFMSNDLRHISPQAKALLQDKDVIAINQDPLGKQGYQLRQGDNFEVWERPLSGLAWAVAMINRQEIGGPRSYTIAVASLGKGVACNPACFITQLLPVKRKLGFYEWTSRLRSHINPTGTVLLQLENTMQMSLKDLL
# Active calls of the source: *; ? = inconclusive; · = no result given. Only part of the results is shown (hit frequency here may not be typical).
1: Cc1nc2nc(C)n(CCN3CCOCC3)c(=O)c2c(-c2cccc([N+](=O)[O-])c2)c1C(=O)CCCCCCCCCCN1CCC(c2ccccc2)(c2ccccc2)CC1
2: COc1ccccc1/C=N/NC(=O)c1ccc2c(c1)OCO2
3: COc1ccccc1N(C)S(=O)(=O)c1ccc(Cl)c(C(=O)Nc2cccc(C)n2)c1
4: O=C(Nc1ccc(Br)cc1)c1cccnc1N1CCCCC1
5: CCOP(=O)(OCC)c1ccc2c(c1)C(=O)c1ccccc1CC2
6: O=c1c2ccccc2c(=O)n(Cc2ccccc2)n1Cc1ccccc1

assay / entry	1	2	3	4	5	6
Rango-impB inh	0.1%	1.3%	2.8%	3.1%	0.9%	-0.9%
miR-21 reporter	·	-23.1%	·	-3.6%	·	-14.0%
Rango dissoc inh	-2.1%	-11.0%	3.9%	-2.3%	7.9%	-3.5%
GLA inh pH 4.5	·	·	·	-4.2	·	-4.9

7: CC(C)[C@H]1C(=O)Nc2ccccc2N1C(=O)N[C@@H](Cc1ccccc1)C(=O)N[C@H](Cc1ccccc1)C(=O)O
8: O=C(Oc1ccccc1C(=O)N1CCOCC1)c1ccc(F)cc1
9: C=CCN1C(=O)c2ccc(C(=O)N(CC)CC(=O)Nc3c(F)cccc3F)cc2C1=O
10: COCCNC(=O)CSc1nc2nc(C)cc(C)n2n1
11: Clc1ccccc1C=NNc1ccccn1
12: COc1ccc(C(=O)Nc2cc(C)ccc2NC(=O)COc2ccccc2)cc1

assay / entry	7	8	9	10	11	12
Rango-impB inh	2.1%	-0.2%	-0.4%	?	2.6%	3.0%
miR-21 reporter	0.5%	0.6%	·	-3.2%	·	-20.3%
Rango dissoc inh	-4.5%	-5.7%	1.8%	-16.1%	-1.5%	-0.3%
GLA inh pH 4.5	·	-3.7	·	4.4	·	8.7

13: CCN1CC(CNC(=O)c2ccc3nc(Cc4cccc(Cl)c4)oc3c2)CC1=O (stereo unspecified)
14: CCCCC(=O)NC(c1ccc([N+](=O)[O-])cc1)c1c(O)ccc2ccccc12 (stereo unspecified)
15: CN(CCNC(=O)c1cccc(N2CCCC2=O)c1)Cc1ccccc1
16: CCCn1c2ccccc2c2cn[nH]c(=O)c21
17: Cc1ccc(Nc2nnc(SCC(=O)c3c(N)n(C4CC4)c(=O)[nH]c3=O)s2)cc1C
18: O=c1[nH]ccc2c([N+](=O)[O-])cccc12

assay / entry	13	14	15	16	17	18
Rango-impB inh	2.9%	0.3%	-0.4%	0.3%	2.6%	-4.1%
miR-21 reporter	-8.4%	18.8%	-2.0%	1.0%	·	-4.1%
Rango dissoc inh	9.8%	0.1%	-2.5%	19.0%	4.5%	0.2%
GLA inh pH 4.5	·	-5.1	-7.9	·	·	-1.2

19: COc1cc(S(=O)(=O)NC2CCCCC2C)ccc1-n1cnnn1 (stereo unspecified)
20: CCOc1ccc(C2C=C(c3ccccc3)Nc3ncnn32)cc1 (stereo unspecified)
21: Cc1cc(C(=O)N/N=C2\CC(=O)CC(C)(C)C2)c(C)n1-c1ccc(F)cc1
22: Cc1cc(OCC(=O)N(Cc2cccs2)C2CCS(=O)(=O)C2)ccc1Cl (stereo unspecified)
23: COc1cc(N2CCCC2)c(OC)cc1/C=C(/C#N)c1cccc(Br)c1
24: COc1ccc(/C=C/C(=O)c2sc(-c3ccccc3)nc2C)cc1

assay / entry	19	20	21	22	23	24
Rango-impB inh	0.0%	·	0.5%	-3.1%	?	-1.8%
miR-21 reporter	2.9%	-7.8%	-3.8%	0.0%	-1.8%	-2.9%
Rango dissoc inh	1.8%	·	-14.2%	-3.1%	?	-13.2%
GLA inh pH 4.5	0.2	8.0	-2.9	·	-2.0	-10.1

25: O=C(O)c1ccccc1NS(=O)(=O)c1ccc(N/N=C/c2ccc(O)c(O)c2)c([N+](=O)[O-])c1
26: CN(Cc1cnccn1)C(=O)CC1C(=O)NCCN1Cc1c(F)cccc1Cl (stereo unspecified)
27: N#C/C(=C\c1cc2ccccc2nc1N1CCCCC1)C(N)=O
28: COC(=O)c1ccccc1NS(=O)(=O)c1ccc(NC(C)=O)cc1
29: C=CCn1c(N)nc2ccccc21
30: O=c1oc(-c2cccs2)nc2scc(-c3cccs3)c12

assay / entry	25	26	27	28	29	30
Rango-impB inh	-0.8%	?	?	-2.2%	-1.6%	?
miR-21 reporter	·	7.8%	-15.1%	-1.6%	-0.9%	-12.5%
Rango dissoc inh	13.8%	2.7%	18.5%	8.4%	21.4%	?
GLA inh pH 4.5	·	-4.5	0.9	6.6	-1.6	-10.1

31: Cc1ccc(-n2c(O)c(C=Nc3ccccc3-c3n[nH]c(=S)[nH]c3=O)c3ccccc3c2=O)cc1C
32: CCN(CC)S(=O)(=O)c1cc(NS(=O)(=O)c2cccc(C(=O)O)c2)ccc1C
33: COC(=O)c1cc2nc(-c3ccccc3)cc(C)n2n1
34: COC(=O)[C@@H]1CC(O)CN1C(=O)C12CC3CC(CC(C3)C1)C2 (stereo partly specified)
35: Cc1ccccc1C1NS(=O)(=O)N=C1N (stereo unspecified)
36: O=C(Nc1ccccc1)c1ccc(S(=O)(=O)Nc2cccc(O)c2)cc1

assay / entry	31	32	33	34	35	36
Rango-impB inh	?	-1.8%	-1.5%	0.2%	-1.7%	-2.6%
miR-21 reporter	8.1%	1.7%	-0.5%	-4.3%	2.2%	16.0%
Rango dissoc inh	?	-9.3%	-4.7%	8.6%	12.6%	-12.7%
GLA inh pH 4.5	-5.2	4.8	-0.6	·	-2.5	·

37: Cc1ccc(-c2nn(CCC(=O)NCC3CCCO3)c(=O)c3ccccc23)cc1 (stereo unspecified)
38: COc1ccc(NS(=O)(=O)c2ccc(Oc3c(C#N)cccc3C#N)cc2)cc1
39: CC(C)C(C(=O)NCC1CCCO1)N(Cc1ccco1)C(=O)CNS(=O)(=O)c1ccc(F)cc1 (stereo unspecified)
40: CC1(C)CC(=O)c2c(-c3cccnc3)n[nH]c2C1
41: O=C1C2C3C=CC(C4CC34)C2C(=O)N1/N=C/c1ccc(-c2ccc(Cl)cc2[N+](=O)[O-])o1 (stereo unspecified)
42: CC(=O)NC(Cc1cc(C)ccc1C)C(=O)N1CCN(C(=O)Nc2ccc(C(C)=O)cc2)CC1 (stereo unspecified)

assay / entry	37	38	39	40	41	42
Rango-impB inh	0.2%	0.9%	0.3%	4.0%	-1.9%	1.3%
miR-21 reporter	-4.7%	28.6%	-6.2%	-20.0%	-2.1%	-21.6%
Rango dissoc inh	2.8%	42.1%	-14.9%	-12.3%	45.7%	-3.6%
GLA inh pH 4.5	0.1	6.5	-3.5	8.8	-8.1	2.2

# 3 compounds from above, limited to Rango-impB inh, miR-21 reporter and GLA inh pH 4.5:
nr	mol	Rango-impB inh	miR-21 reporter	GLA inh pH 4.5
2	COc1ccccc1/C=N/NC(=O)c1ccc2c(c1)OCO2	1.3%	-23.1%	·
29	C=CCn1c(N)nc2ccccc21	-1.6%	-0.9%	-1.6
19	COc1cc(S(=O)(=O)NC2CCCCC2C)ccc1-n1cnnn1 (stereo unspecified)	0.0%	2.9%	0.2

# Continuation:
43: O=C(O)c1ccc(-n2cccc2/C=N\NC(=O)c2cc3cc(Br)ccc3o2)cc1
44: Cc1nc(SCC(=O)Nc2nc3ccccc3s2)n[nH]1
45: C=CCNc1oc(C2CCCC2)nc1C#N
46: COc1cccc(C(=O)NN2CC(O)=C(c3nc4ccccc4n3C)C2=N)c1
47: CCOC(=O)C1CCN(S(=O)(=O)c2ccc(Cl)cc2OC)CC1
48: COc1cc2c(cc1NC(=O)CN(C)Cc1cccc(OC)c1OC)oc1ccccc12

assay / entry	43	44	45	46	47	48
Rango-impB inh	?	-1.0%	-0.3%	·	2.8%	-1.2%
miR-21 reporter	-6.8%	-25.4%	·	0.5%	-0.5%	2.5%
Rango dissoc inh	-17.3%	24.4%	-4.1%	·	22.1%	0.1%
GLA inh pH 4.5	-7.3	·	·	4.0	-26.0	-0.3

# Whole records, quoted from the list. Order of values: Rango-impB inh | miR-21 reporter | Rango dissoc inh | GLA inh pH 4.5
# Record of `Cc1nc(SCC(=O)Nc2nc3ccccc3s2)n[nH]1` → -1.0% | -25.4% | 24.4% | ·
# Record of `CCOC(=O)C1CCN(S(=O)(=O)c2ccc(Cl)cc2OC)CC1` → 2.8% | -0.5% | 22.1% | -26.0

# (list continues)
49: CCOC(=O)c1cnn2c(N)c(C#N)cnc12
50: COc1ccc2cc([C@H](C)C(=O)N(C)Cc3ccccc3N3CCCC3)ccc2c1
51: CC(SC(C)C(=O)NN=Cc1ccc(F)cc1)C(=O)NN=Cc1ccc(F)cc1 (stereo unspecified)
52: Nc1cc(C(=O)O)ccc1N1CCCCC1
53: CCOCCCNC(=S)NC1CC2CCC(C1)N2Cc1ccccc1 (stereo unspecified)
54: CCN(CC)C(=O)C(C)OC(=O)c1ccc(O)cc1 (stereo unspecified)

assay / entry	49	50	51	52	53	54
Rango-impB inh	2.9%	8.7%	8.7%	1.0%	1.0%	0.2%
miR-21 reporter	-10.6%	0.3%	·	-3.8%	-3.0%	2.3%
Rango dissoc inh	20.0%	18.3%	11.6%	15.5%	-17.6%	13.3%
GLA inh pH 4.5	5.7	·	·	-2.7	9.8	-1.5

55: Cc1ccc2[nH]cc(CCNC(=O)c3ccc4c(c3)OCO4)c2c1
56: Cc1cc(C)nc(NS(=O)(=O)c2ccc(Br)cc2)n1
57: CCN(CC)CCOc1nnc(-c2ccc(C)cc2)c2ccccc12
58: CCOc1ccccc1N1CC(C(=O)Nc2c(C)n(C)n(-c3ccccc3)c2=O)CC1=O (stereo unspecified)
59: Cn1c(CCNC(=O)c2ccco2)nc2cc(NS(=O)(=O)c3ccccc3)ccc21
60: O=[N+]([O-])c1cccc(NC(=S)NCc2ccncc2)c1

assay / entry	55	56	57	58	59	60
Rango-impB inh	-0.8%	6.8%	0.3%	-0.1%	-2.0%	1.3%
miR-21 reporter	-11.4%	0.0%	0.7%	-1.4%	5.1%	2.3%
Rango dissoc inh	-4.4%	2.7%	-20.8%	-0.1%	6.4%	18.2%
GLA inh pH 4.5	·	-3.1	-15.1	5.3	2.3	-2.3

61: CCOC(=O)c1c(C)[nH]c(C(=O)COC(=O)CSCC(=O)N(CC)CC)c1C
62: OCCNCCCOc1cc(Cl)ccc1Cl
63: CC(=O)c1ccc(N2CCN(S(=O)(=O)c3cn(C)c(C)n3)CC2)cc1
64: N=C1/C(=C\c2ccc(SCc3ccccc3)o2)C(=O)N=C2SC=NN12
65: O=C(N/N=C/c1ccc(Br)s1)c1cccs1
66: C=CCN=C(C)C1=C(O)C(C)OC1=O (stereo unspecified)

assay / entry	61	62	63	64	65	66
Rango-impB inh	3.9%	2.3%	3.3%	?	4.7%	0.1%
miR-21 reporter	-25.5%	-29.2%	-5.0%	-4.3%	-19.0%	-0.1%
Rango dissoc inh	34.5%	-4.1%	13.2%	-20.5%	-3.2%	5.4%
GLA inh pH 4.5	4.4	-2.1	·	-2.1	1.7	5.7

67: NC(=O)CSc1nc2cc(Cl)ccc2c(=O)n1C1CCCCC1
68: CCOC(=O)C1CCN(c2c(C(=O)c3ccccc3)cnc3ccc(Cl)cc23)CC1
69: Cc1ccc(CN2CCCN(Cc3cc(C)ccc3C)S2(=O)=O)cc1
70: O=Cc1cn(-c2ccccc2)nc1-c1ccc(F)cc1
71: COc1ccc(C2Nc3cccc4cccc(c34)N2)cc1Br
72: O=C(O)c1cccc(NC2=C(N3CCOCC3)C(=O)c3ccccc3C2=O)c1
73: O=C(NCc1ccccc1F)C1CCCN1C(=O)Nc1ccc(Cl)cc1 (stereo unspecified)
74: O=C(O)c1cc(O)ccc1N=Nc1ccccc1
75: Cn1c(SCc2c(F)cccc2Cl)nnc1-c1cccs1

assay / entry	67	68	69	70	71	72	73	74	75
Rango-impB inh	1.2%	-1.6%	-4.4%	-5.5%	-0.9%	0.2%	-2.9%	-2.2%	?
miR-21 reporter	9.4%	7.9%	-1.1%	-12.9%	0.5%	-11.2%	-2.4%	3.9%	-64.4%
Rango dissoc inh	-20.8%	-19.6%	-9.2%	27.7%	2.0%	10.1%	17.6%	46.6%	-3.0%
GLA inh pH 4.5	·	-4.9	·	·	·	1.3	·	-3.4	-2.1

# High-throughput results as filed in PubChem BioAssay.
